Screens deposited in PubChem by National Center for Advancing Translational Sciences (NCATS).
RE007 growth inh = less growth of the S. pombe RE007 Vpr strain; hit rate 0.21% among 360,000; AID 651644; Potency, µM (highest dose often 92.2 µM), for inactives: at the highest dose activity change, negative = less growth; S. pombe RE007 Vpr strain, BacTiter-Glo ATP luminescence, 24 h; control for the full effect not named in the record; active = well fitted falling curve with a large enough effect; inconclusive = small, poorly fitted or top-dose-only effect; inactive = no such curve, though single readings can be large or run the other way;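 note: % is set by controls: 0 for no effect and ±100 for the full control effect; nearly all actives have a fitted effect of over 50% in size; the assay follows cell death caused by Vpr and the record does not say whether a fall means rescue or toxicity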
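Fission yeast RE007 carrying one integrated HIV-1 vpr copy, seeded at OD 0.01 in PMG+AL medium with 23 nL pinned compound. Grown 24 h at 30 degrees; viability read by BacTiter-Glo luminescence after 5 min.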
SARS PLP yeast = SARS-CoV PLP inhibition in yeast. Potency, µM (highest dose often 32.9 µM), without a hit: top-dose activity, positive = growth rescue. AID 485353. S. cerevisiae expressing SARS-CoV PLpro, growth rescue; control for the full effect not named in the record. hit rate 0.19% among 330,000; note: 0% is about no effect; nearly all actives have a fitted effect of over 55% in size; growth read by luminescence after 48 h
Cruzain Triton = blocks cruzain activity in presence of Triton detergent. P25779. purified cruzain, Z-FR-AMC fluorescence, 0.01% Triton. Potency, µM, without a hit: max response, negative = inhibition, most hits filed as inhibitors. hit rate 0.43% among 200,000. AID 1478; active = well fitted curve in the direction sought with a large enough effect; inconclusive = small, poorly fitted or top-dose-only effect, or another doubt; inactive = no such curve, though single readings can be large; an effect the other way counts as inactive or inconclusive;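 note: plate controls were neutral wells for no effect and buffer without enzyme for full effect; nearly all actives have a fitted effect of over 40% in size; top concentration of the series not given in the record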
Target sequence (P25779 123-467 limits assumed): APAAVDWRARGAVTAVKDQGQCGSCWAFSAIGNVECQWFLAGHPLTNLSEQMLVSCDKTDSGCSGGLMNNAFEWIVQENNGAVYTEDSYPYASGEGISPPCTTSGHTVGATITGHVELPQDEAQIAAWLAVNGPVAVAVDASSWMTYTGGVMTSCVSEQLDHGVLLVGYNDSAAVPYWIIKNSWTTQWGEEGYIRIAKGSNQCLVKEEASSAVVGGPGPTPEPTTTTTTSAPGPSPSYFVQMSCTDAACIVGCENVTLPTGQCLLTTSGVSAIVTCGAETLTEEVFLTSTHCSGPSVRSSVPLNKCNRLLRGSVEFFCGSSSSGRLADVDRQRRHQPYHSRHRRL
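Purified cruzain (1.5 nM final) was preincubated with compounds for 15 min at room temperature in 100 mM sodium acetate pH 5.5, 5 mM DTT, 0.01% Triton X-100. Reaction started with 2 uM Z-FR-AMC; AMC fluorescence change over 60 s gave activity.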
Lassa entry inh = Lassa virus entry inhibition | Lassa virus pseudotype entry inhibition, cell reporter; control for the full effect not named in the record | Potency, µM (doses to about 37.9 µM), without a hit: top-dose activity change, negative = inhibition, actives largely listed as inhibitors | hit rate 1.2% among 300,000 | AID 540256; active means well fitted inhibition curve with a large enough effect; inconclusive means small, poorly fitted or top-dose-only effect, or effect the other way; inactive means flat fitted curve, though single readings scatter; tested in HEK293 cells; note: % is set by controls: 0 for no effect and ±100 for the full control effect; nearly all actives have a fitted effect of over 50% in size; luciferase read-out
StopGo reporter = FMDV 2A StopGo reporter, luciferase signal; human cells with a luciferase reporter of 2A StopGo recoding; control for the full effect not named in the record; AID 1159524; hit rate 1.2% among 410,000; Potency, µM (series often up to 57.9 µM), for inactives: top-dose signal change, negative = less light; active = well fitted falling curve with a large enough effect; inconclusive = small, poorly fitted or top-dose-only effect; inactive = no such curve, though single readings can be large or run the other way; tested in HEK293T cells; note: % is set by controls: 0 for no effect and ±100 for the full control effect; nearly all actives have a fitted effect of over 45% in size; luciferase light after 4 h
Cruzain inh noDet = cruzain (T. cruzi) inhibition without detergent; P25779; purified cruzain, Z-FR-AMC fluorescence, no detergent; Potency, µM, for the others: max response, negative = inhibition, most hits filed as inhibitors; hit rate 2.3% among 200,000; active = well fitted curve in the direction sought with a large enough effect; inconclusive = small, poorly fitted or top-dose-only effect, or another doubt; inactive = no such curve, though single readings can be large; an effect the other way counts as inactive or inconclusive;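 note: plate controls were enzyme without inhibitor for no effect and buffer without enzyme for full effect; nearly all actives have a fitted effect of over 40% in size; top concentration of the series not given in the record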
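Purified cruzain at 1.5 nM, pre-incubated 15 min with compound at room temperature in 100 mM sodium acetate pH 5.5, 5 mM DTT, 0.00005% Triton X-100. Reaction started with 2 uM Z-FR-AMC; AMC fluorescence increase over 60 s gives rate.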
NS1 inh = blocks influenza NS1 protein function; S. cerevisiae slowed by influenza A NS1, growth recovery by OD600; AID 2326; Potency, µM (series often up to 46.1 µM), for the others: top-dose activity, positive = more growth; hit rate 0.4% among 270,000; note: actives are rising curves; nearly all actives have a fitted effect of over 50% in size
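A cell-based growth assay was used: compounds that relieve NS1-induced slow growth of budding yeast raise OD600. Assay medium was yeast nitrogen base with ammonium sulphate and -URA supplement, pH 6.0, with 2% galactose.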
Marburg entry inh = inhibitors of Marburg virus binding or cell entry. hit rate 1.8% among 300,000. Marburg virus pseudotyped entry inhibition, cell reporter; control for the full effect not named in the record; about a third of the inactives were read at about 46 µM. AID 540276. Potency, µM (highest dose often 37.8 µM), inactives show at the top dose activity change, negative = inhibition, hits mostly inhibitors; active = well fitted inhibition curve with a large enough effect; inconclusive = small, poorly fitted or top-dose-only effect, or effect the other way; inactive = flat fitted curve, though single readings scatter; tested in HEK293 cells; about a fifth of its hits are not listed in these tables; note: % is set by controls: 0 for no effect and ±100 for the full control effect; luciferase read-out
Active calls of the source: *; ? = inconclusive; . = not tested or not shown; & = joins results of further samples; [ ] = remark or other dose. Unless noted, calls come from the whole dose curve; as a rule, active means well fitted rising curve with a large enough effect; inconclusive means small, poorly fitted or top-dose-only effect; inactive means no such curve, though single readings can be large or run the other way. Potency is the fitted concentration of half-maximal effect.

SMILES | RE007 growth inh | SARS PLP yeast | Cruzain Triton | Lassa entry inh | StopGo reporter | Cruzain inh noDet | NS1 inh | Marburg entry inh
Cc1ccccc1NS(=O)(=O)c1ccc(C(=O)N2CCN(S(=O)(=O)c3ccccc3)CC2)cc1 | 24% | -3% | . | -17% | ? | . | . | ?
CC(C)[C@H](NC(=O)[C@H](Cc1ccccc1)n1c(=O)[nH]c2ccccc2c1=O)C(=O)N1CCC[C@@H]1C(=O)O | -5% | 2% | . | . | -20% | . | -1% | .
Cc1c(C(=O)NCCCN2CCOCC2)oc2c1C1(CCC2)SCCS1 | 22% | -6% | 0.4% | -18% | 11% | -2% | -9% | -16%
O=C(CSc1nc2[nH]ncc2c(=O)[nH]1)Nc1ccccc1C(F)(F)F | -15% | -1% | . | 4% | -6% | . | . | -6%
COc1cc2nc(SCC(=O)NCCc3ccccc3)n(Cc3ccco3)c(=O)c2cc1OC | 0%[3.69 µM] | -1% | -0.6% | 4% | -4% | ? | 2.5µM* | -2%
COc1ccc(-c2nc(CS(=O)CC(=O)NCCCN3CCCC(C)C3)c(C)o2)cc1OC (configuration not stated) | -27% | -6% | . | 29%[46.1 µM] | 9% | . | 9% | ?
O=C(Cc1ccccc1F)NC1CCCN(Cc2ccc(Cl)cc2)C1 (configuration not stated) | -13% | 1% | . | . | -20% | . | 21% | .
N/C(=N\c1nc(C(F)(F)F)cc(=O)[nH]1)Nc1ccc(Cl)cc1 | . | 12% | 0.5% | . | . | -5% | 10% | .
CN(c1ccc(C(=O)N2CCN(c3ccccc3F)CC2)cc1)S(=O)(=O)c1ccccc1 | -28% | -3% | . | 15%[46.1 µM] | -4% | . | -23% | -27%[46.1 µM]
CN1C(=O)c2ccc(C(=O)NCc3ccc4c(c3)OCO4)cc2C1=O | 7% | 5% | -3.1% | -3% | -14% | 0% | 7% | ?
CCOC(=O)N1CCN(C(=O)C(=O)NN)CC1 | 0% | -1% | . | 3% | 3% | . | 2% | ?
CCN1CCN(c2ccc(S(=O)(=O)N3CCCCC3)cc2NC(=O)c2cccc(C)c2)CC1 | -5% | 0% | . | 23% | -25% | . | . | ?
CCOC(=O)c1sc(N2C(=O)c3oc4ccccc4c(=O)c3C2c2ccc(C(C)(C)C)cc2)nc1C (configuration not stated) | . | . | -1.6% | -3%[46.1 µM] | 3% | 1% | . | 15%[46.1 µM]
Cc1ccccc1SCC(=O)NCCCn1ccnc1 | -3% | 1% | . | 3% | -4% | . | 7% | 12%
CCSc1nnc(NC(=O)/C=C/c2ccc3c(c2)OCO3)s1 | . | 0% | 16µM* | -11% | . | 16µM* | -4% | 7%
O=S(=O)(CC(O)COc1ccc(Br)cc1)c1ccccc1 (configuration not stated) | 17% | -4% | . | . | -4% | . | -3% | .
COc1ccc(S(=O)(=O)N(C)CC(=O)NCc2ccccc2)cc1OC | 20% | 0% | . | 22%[46.1 µM] | 8% | . | -1% | 23%[46.1 µM]
COc1ccccc1NS(=O)(=O)c1ccc(N2CCOCC2)c(NC(=O)c2ccco2)c1 | 19% | 0% | . | . | 40%[activator] | . | . | -18%[46.1 µM]
O=C1NC(=O)/C(=C\c2ccc(Sc3ccc(Cl)cc3)o2)N1 | -20% | -12% | -8.5% | 0% | -22% | ? | -21% | ?
CC(/C=C/c1ccccc1)=N\NC(N)=S | 0% | 13µM* | ? | -18% | -8% | -19% | -48% | ?
O=C(CCc1nc(-c2ccccc2Cl)no1)Nc1cccnc1 | 36% | 1% | . | . | ? | . | 2% | -3%[46.1 µM]
CCN(CC(=O)Nc1cc(Cl)ccc1C)C(=O)c1ccc2c(c1)NC(=O)C(C)S2 (configuration not stated) | 3% | -8% | . | -7% | ? | . | . | 0%
CCOC(=O)N1CCN(C(=O)C2CCCN(S(C)(=O)=O)C2)CC1 (configuration not stated) | 3% | 14% | 3.0% | 7% | 10% | -1% | -2% | 29%
CC(C)Sc1ncc(Cl)c(C(=O)Nc2c(C(=O)Nc3ccccc3)oc3ccccc23)n1 | . | . | 0.0% | 2%[46.1 µM] | -16% | 10% | . | 6%[46.1 µM]
Nc1c(Cl)ncnc1N/N=C/c1ccccn1 | ? | . | -2.4% | 2.5µM* | -10% | -8% | -33% | ?
COc1ccc(NC(=O)CC2C(=O)N(c3ccc(OC)cc3)C(=S)N2NC(=O)c2cccc(F)c2)cc1 (configuration not stated) | -26% | 14% | -1.7% | 5% | 4% | -9% | 9% | -22%
COCC(C)NC(=O)c1cccc([N+](=O)[O-])c1 (configuration not stated) | -16% | 0% | . | ? | 12% | . | 1% | 1%
COc1ccccc1-c1cc(C(=O)N/N=C\c2cn(C)nc2C)c2ccccc2n1 | 9% | -7% | -2.9% | 2% | -24% | ? | 1% | -8%
Cc1ccc(NC(=O)C2(S(=O)(=O)c3ccc(Cl)cc3)CC2)cc1 | 6% | 3% | . | -9% | 19% | . | -9% | -18%[46.1 µM]
CCOC(=O)C(O)(c1ccc(N(CC)S(=O)(=O)c2ccc(C)cc2)cc1)C(F)(F)F (configuration not stated) | -4% | -4% | -6.0% | ? | -8% | -1% | -5% | 3%
Cc1csc2nc(COC(=O)c3ccc(Cl)c([N+](=O)[O-])c3)cc(=O)n12 | 17% | -1% | . | -15% | -21% | . | . | 3%[46.1 µM]
CN1C(=O)C(O)(CC(=O)c2ccc(F)cc2)c2cc(Br)ccc21 (configuration not stated) | -1% | -10% | -4.3% | . | 0% | -3% | -17% | -4%
COc1ccc(S(=O)(=O)N2CCCC(C(=O)NCC3CCCO3)C2)cc1OC (configuration not stated) | -13% | -4% | . | 8% | -13% | . | 16% | 0%[46.1 µM]
COc1ccc(Cl)cc1NC(=O)CSc1nnc(-c2ccco2)o1 | 2% | -8% | . | 11% | 5% | . | -17% | ?
Cc1cccc(OCC(O)CNC(=O)c2ccccc2C(=O)O)c1 (configuration not stated) | -15% | . | . | 1% | -6% | . | . | ?
Cc1cc(C)cc(Nc2cc(C)nc3nc(C)nn23)c1 | 3% | 4% | 4.2% | . | -23% | -16% | ? | .
O=C(NC1CC(=O)N(c2ccccc2)C1)c1ccc(S(=O)(=O)N2CCCC2)cc1 (configuration not stated) | . | . | -1.1% | -2%[46.1 µM] | -23% | -3% | . | .
Cc1n[nH]c(=S)c2nn(-c3ccccc3)c(C)c12 | . | 8% | -6.5% | . | . | -3% | 36% | -3%
C/C(=N\NC(=O)c1n[nH]c2c1CCC2)c1cccs1 | 3% | -3% | . | -22% | 41%[activator] | . | -10% | -4%[46.1 µM]
CC(C)Oc1cccc(C(=O)C2CCCN(Cc3ccc4nonc4c3)C2)c1 (configuration not stated) | ? | -1% | . | ? | -17% | . | -7% | ?
Cc1cccc(NS(=O)(=O)c2ccc(C(=O)N3CCN(c4ccccc4O)CC3)cc2)c1C | -6% | -3% | . | ? | ? | . | -1% | ?
O=C1C2C(c3cccc(/C=C/c4ccccc4)c3)CC=CC2C(c2ccc3ccccc3c2)N1Cc1ccccc1 (configuration not stated) | 9% | 1% | . | . | -27% | . | -2% | .
CCN(CC(=O)Nc1c(F)cccc1F)C(=O)CSc1nc2ccccc2o1 | 7% | 2% | . | -14% | 3% | . | . | -15%[46.1 µM]
Fc1ccc(NCc2nnc(SCc3nnc(-c4ccccc4)o3)n2CC2CCCO2)cc1 (configuration not stated) | -16% | 1% | 3.1% | 1% | -20% | 7% | -3% | -13%&-13%
COC(=O)C1CCN(c2csc3ccc(Cl)cc3c2=O)CC1 | . | . | -6.7% | 7%[46.1 µM] | 25% | -8% | . | .
O=c1c2ccc([N+](=O)[O-])c3cccc(c32)c2nc3ccccc3n12 | . | -1% | 9.8% | . | . | 6% | -13% | .
Cn1nc(C(F)(F)F)c(-c2ccc(F)cc2)c1NC(=O)Nc1ccc(F)cc1 | 13% | 0% | . | -4% | ? | . | 2% | ?
Cc1ccccc1CSCCNC(=S)Nc1ccccc1 | 5% | -3% | . | -24% | 26% | . | -41% | ?
CCN(CC)CCCNc1nnc(C)c(=O)[nH]1 | 1% | 3% | 1.0% | 0% | -7% | 5% | 3% | 2%
CNC(=O)C(=O)Nc1cc2c3c(c1)CCC(=O)N3CCC2 | -3% | 0% | . | . | -10% | . | -8% | .
COc1ccc(C(CNC(=O)C2CCN(S(=O)(=O)c3ccc(F)cc3)CC2)N(C)C)cc1 (configuration not stated) | -13% | 0% | . | -20% | -1% | . | 4% | 0%
CCN1CCN(S(=O)(=O)c2ccc(Cl)c(C(=O)NC(C)c3ccccc3Cl)c2)CC1 (configuration not stated) | -12% | 8% | . | 4% | -2% | . | . | ?
CC(=O)c1ccc(N2CCN(c3ncc(C(F)(F)F)cc3Cl)CC2)cc1 | -21% | -1% | -16% | -29% | ? | -2% | 9% | ?
CC1CCCCN1Cc1c(O)ccc2c(=O)c(-c3ccccc3Cl)c(C(F)(F)F)oc12 (configuration not stated) | . | . | -9.0% | -4%[46.1 µM] | 0% | -6% | . | ?
COc1ccc(S(=O)(=O)NCCCCNS(=O)(=O)c2ccc(OC)cc2)cc1 | 22% | -2% | 0.2% | -14% | 23% | 5% | -2%[9.22 µM] | -1%
CCCCOc1ccc(C(=O)Nc2ccncc2)cc1 | 9% | -21% | 4.4% | ? | ? | -4% | -33% | ?
CC(OC(=O)CC1CCCCC1)C(=O)Nc1cccc(C#N)c1 (configuration not stated) | 11% | 2% | . | 16% | -23% | . | . | -9%
CCOc1cc(/C=N/NC(=O)C2CCCC2)ccc1O | 1% | -8% | . | 0%[46.1 µM] | 5% | . | 9% | 7%[46.1 µM]
CCc1nnc(NC(=O)[C@@H]2CCCN2S(=O)(=O)c2ccc3c(c2)OCCO3)s1 | 4% | 6% | 3.0% | 6% | -4% | -6% | 0% | -12%
O=C(NCCCN1CCCC1=O)c1cc(COc2ccc(F)cc2F)on1 | -3% | -2% | . | . | -4% | . | -4% | .

Outcome played no part in choosing rows, and some 4.7% of all compounds hit somewhere here.
